Bioassay records deposited in PubChem by several laboratories.
UUG fidelity: alters start codon recognition fidelity in yeast; activity score, % at 18.7 µM; 350,000 tested, 0.13% active; S. cerevisiae UUG-firefly luciferase reporter, luminescence/redox ratio;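 active = replicate mean at a twofold rise or more, about +100% in these data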;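 also: firefly luciferase made from a UUG start codon reports start codon fidelity; reporter light over untreated wells divided by growth signal over untreated wells; some hits fall short of that in this replicate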
eIF4H inh: inhibitors of RNA binding by human eIF4H; inhibition, % at 35 µM; eIF4H fluorescence polarization binding assay; AID 2012; 290,000 tested, 0.94% active; Q15056;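 active = 50% or more with normal probe brightness, or confirmed in later tests; inconclusive = above 50% with abnormal brightness, or retests that disagree; inactive = below 50% or failed in later tests; about a fifth of its hits are not listed in these tables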;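 also: calls also rest on retests at 20 µM and on dose response follow-up; 0% = protein and probe with vehicle and 100% = probe without protein; strong numbers were not always called active; many hits fall short of the cut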
PABP FP inh: PABP-poly(A) binding inhibition; 290,000 tested, 1% active; AID 2014; inhibition, % at 35 µM; PABP-poly(A) RNA binding, fluorescence polarization; P11940;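 active = 50% or more with normal probe brightness, or confirmed in later tests; inconclusive = above 50% with abnormal brightness, or retests that disagree; inactive = below 50% or failed in later tests; about a fifth of its hits are not listed in these tables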;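 also: calls also rest on retests at 20 µM and on dose response follow-up; controls were probe without protein and protein plus probe with vehicle; some compounds called inactive have numbers as strong as hits; many hits fall short of the cut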
HIV Env fusion: inhibitors of HIV Env-mediated cell fusion; 360,000 tested, 1.1% active; inhibition, % at 12.3 µM; HeLa-JRFL Env/CEM21 cell fusion, luciferase;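 active = mean replicate inhibition score of at least 50 and every replicate individually at or above 50; inconclusive = only one of the two criteria met; inactive = mean below 50 and not all replicates reaching 50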;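 also: 0% = plate neutral controls and 100% = maraviroc near 300 nM; one replicate is shown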
CSC inhib: cancer stem cell inhibition. cancer stem cell-like cells viability, luminescence. inhibition, % at 7.5 µM. 300,000 tested, 1.1% active. AID 2717;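 active = mean at 75% or more and at least half the replicates too; inconclusive = mean and replicates disagree; tested in HMLE shEcad cells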;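 also: 0% = median of negative and 100% = median of positive control wells; the first replicate is given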
MT1-MMP act inh: blocks activation of human MT1-MMP. P50281. HT1080 RFP-PRO-GFP cells, GFP/RFP ratio fluorescence, overnight; percent of plate control window, DMSO zero. 360,000 tested, 0.061% active. GFP/RFP ratio change, % at 20 µM;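 active = GFP/RFP ratio change of at least 30% with cell ATP level not reduced by more than half and red fluorescence within 50% of control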; also: strong numbers were not always called active
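Read-out: GFP/RFP fluorescence ratio; Test system: RFP-PRO-GFP reporter HT1080 cells; Compound dosing: single-point 20 µM compound, 1% DMSO; Times: overnight compound exposure at 37 °C.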
Rce1 inh: inhibitors of yeast Ras-converting enzyme; Q03530; yeast membranes, quenched prenylated peptide cleavage fluorescence; calls only; 290,000 tested, 0.27% active; AID 2563;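 active = fall in fluorescence gain of 50% or more versus controls, with final raw signal at or below 3038400; inconclusive = same 50% fall but final raw signal above 3038400; inactive = fall in fluorescence gain under 50%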;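 also: plate controls were neutral control wells for no effect and wells lacking membranes for full effect; tested at 10 µM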
Target sequence (Q03530 whole entry, looked up): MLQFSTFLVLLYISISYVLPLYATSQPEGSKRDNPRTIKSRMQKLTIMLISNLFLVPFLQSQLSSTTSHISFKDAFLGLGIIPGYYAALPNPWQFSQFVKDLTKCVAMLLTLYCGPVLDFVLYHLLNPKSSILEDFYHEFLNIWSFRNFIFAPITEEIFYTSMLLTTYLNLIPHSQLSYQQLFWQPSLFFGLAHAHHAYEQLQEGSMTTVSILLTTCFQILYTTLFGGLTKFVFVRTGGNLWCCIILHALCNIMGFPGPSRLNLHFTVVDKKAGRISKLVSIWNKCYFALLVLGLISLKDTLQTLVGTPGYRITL
MT1-MMP act inh RFP: further read-out of MT1-MMP act inh, marked with its call; RFP signal change, %; measured here: RFP expression control read;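 0 = vehicle wells; hits needed this value within 50% of zero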
An asterisk follows results filed as active; i = inactive; u = inconclusive; x = no result given.

SMILES	UUG fidelity	eIF4H inh	PABP FP inh	HIV Env fusion	CSC inhib	MT1-MMP act inh	MT1-MMP act inh RFP	Rce1 inh
CCOC(=O)/C(=N/Nc1ccccc1OC)N1CCCc2ccccc21	x	-3	3	15	16	-2	-1	i
O=C(COC(=O)Cn1cnc2ccccc21)Nc1ccc2c(c1)C(=O)c1ccccc1C2=O	x	11	-2	-90	32	10	10	i
CN(CC(=O)Nc1ccc(OC(F)(F)F)cc1)C(=O)/C=C/c1cc2c(cc1[N+](=O)[O-])OCO2	-19	x	x	x	17	2	-4	x
COc1ccc(OC)c(NC(=O)CSc2ccc(-c3ccco3)nn2)c1	-7	x	x	x	3	3	-3	i
N#C/C(=C\Nc1ccc(Cl)cn1)S(=O)(=O)c1ccccc1	x	6	4	-10	-1	2	-4	i
COc1cccc(C(=O)CC(=O)C(=O)Nc2cccc([N+](=O)[O-])c2C)c1	-4	-5	0	-3	2	1	6	i
CCOc1ccc(NC(=O)CNC(=O)c2nn(-c3ccc(OC)c(OC)c3)c(=O)c3ccccc23)cc1	-14	33	-9	12	0	-7	4	x
Cc1c(Cl)c(=O)n2c(=O)c(Cl)c(C)n12	-18	31	3	9	-8	2	2	i
Cc1ccc2nc(N/N=C/c3ccccc3F)nc(-c3ccccc3)c2c1	-26	-6	3	-24	2	-10	-6	i
Cc1ccc(C)c(N2CN(CCC3=CCCCC3)CNC2=S)c1	x	-8	-8	4	-7	0	-2	i
CSCC[C@H](NC(=O)CCNC(C)=O)c1nc2ccccc2[nH]1	-12	-2	5	x	-7	1	4	i
OCC[C@@H]1C[C@H](O)[C@@H](O)[C@]2(CCCCO2)O1	-8	x	x	-10	-15	-1	2	i

Taken from the entries so far, two compounds:
SMILES	UUG fidelity	eIF4H inh	PABP FP inh	HIV Env fusion	CSC inhib	MT1-MMP act inh	MT1-MMP act inh RFP	Rce1 inh
CCOc1ccc(NC(=O)CNC(=O)c2nn(-c3ccc(OC)c(OC)c3)c(=O)c3ccccc23)cc1	-14	33	-9	12	0	-7	4	x
Cc1c(Cl)c(=O)n2c(=O)c(Cl)c(C)n12	-18	31	3	9	-8	2	2	i

(listing goes on)
SMILES	UUG fidelity	eIF4H inh	PABP FP inh	HIV Env fusion	CSC inhib	MT1-MMP act inh	MT1-MMP act inh RFP	Rce1 inh
Cc1cc(-c2ccc(C)c(S(=O)(=O)NCCN3CCC(C)CC3)c2)on1	-10	-6	-9	-5	11	1	3	i
CN(C)CCNC(=O)/C=C/c1cn(-c2ccccc2)nc1-c1cc2ccccc2oc1=O	-22	-8	-4	-6	0	1	3	i
COC(=O)[C@H](CC(C)C)NC(=O)NC1CCCCC1C (stereo partly specified)	-8	-4	3	9	-4	7	3	i
CC(NC(=O)C1C2C=CC(C2)C1C(=O)O)c1ccccc1 (stereo unspecified)	-11	17	-2	-8	x	5	4	i
Fc1ccc(C2C3=C(Nc4ncnn42)c2ccccc2OC3c2ccncc2)cc1 (stereo unspecified)	-20	1	0	30	-8	-42	-28	i
CCc1nc2c(OCc3ccc(Cl)cc3)cccn2c1N(C)C(=O)c1ccc2c(c1)OCO2	-13	x	x	31	x	-3	3	x
Cc1c(C(c2ccccc2Br)c2c(C)n(C)n(-c3ccccc3)c2=O)c(=O)n(-c2ccccc2)n1C	-12	-8	7	-7	4	-2	-1	i
Cc1cccc(Cc2nnc(CCC(=O)N(C)CCc3ccccc3)o2)c1	-8	9	3	-24	-12	-2	-2	i
Cc1cc(=O)oc2c(CN3CCN(CCO)CC3)c(O)ccc12	-23	-12	-4	12	-11	2	4	u
O=C1Nc2ccccc2C12OC1CCCCC1O2 (stereo unspecified)	-12	12	-1	11	2	6	3	i
CCOC(=O)N1CCC(Nc2c(NCCCN3CCN(c4ccc(OC)cc4)CC3)c(=O)c2=O)CC1	11	-8	-4	-3	1	7	4	i
O=C(COc1ccc2c(c1)CCC2)NCc1ccc(Cl)cc1	-27	-2	-7	9	5	2	4	i
CCCCn1c(N)c(N(CC(C)C)C(=O)c2ccco2)c(=O)[nH]c1=O	-8	x	x	x	-7	0	0	i
N#Cc1ccc(Sc2ccccn2)c([N+](=O)[O-])c1	-19	5	2	-5	-16	1	0	i
CCOc1ccc(N(C(=O)CNS(=O)(=O)c2ccccc2)C(CC)C(=O)NCc2ccco2)cc1 (stereo unspecified)	x	-5	6	11	x	-2	-3	i
CCS(=O)(=O)N1CCN=C1SCc1ccc(F)cc1	-10	1	-1	10	-13	1	3	i
Cc1cccc(NC(=O)c2c(C)cc(=O)oc2C)n1	x	13	3	x	-14	2	1	i
Cc1ccccc1Nc1cc(C(=O)NCc2ccco2)c2ccccc2n1	x	4	-6	-15	19	2	-1	i
O=C(Nc1cccc(F)c1)c1cccnc1NCCc1ccccc1	x	2	6	-2	44	-5	0	i
Cc1ccc(C)c(-n2c(SCC(=O)NC(C(=O)O)C(C)C)nnc2-c2cccc(Cl)c2)c1 (stereo unspecified)	x	4	0	15	-5	-1	4	i
C/C(=C\C(=O)Nc1nccs1)c1ccccc1	x	-5	10	-219	x	-2	-2	i
C1=C(c2ccccc2)Nc2ccccc2N=C1c1ccccc1	x	-7	-13	10	9	1	1	i
N=c1c2c3c(sc2ncn1Cc1ccccc1)CCCC3	-13	1	4	8	59	2	-1	i
CCOC(=O)c1oc2nc(C(C)C)c3c(c2c1N)CCC3	-10	-8	-5	-26	-11	0	7	i
COc1ccc(S(=O)(=O)N2CCC(C(=O)N[C@@H](C)C(=O)N3CCCCCC3)CC2)cc1	9	-7	-1	4	13	-3	-4	i
S=C(Nc1ccc(Cl)cc1)Nc1cccc2cnccc12	x	u	-4	1	52	-1	-2	i
CCCCNS(=O)(=O)c1ccc2nc(-c3cccnc3)cc(C(=O)NCC(OC)OC)c2c1	-15	-10	6	42	-9	-5	-2	i
Cc1ccccc1CN(C)CC(=O)Nc1c(C)cccc1C(C)C	x	0	-9	5	9	1	-4	i
O=C(Nc1nnc(S(=O)(=O)N2CCCC2)s1)c1cccc([N+](=O)[O-])c1	-10	-8	11	x	-12	2	-1	i
Cc1cc(N2CCN(S(=O)(=O)c3ccc4ccccc4c3)CC2)n2ncnc2n1	-6	1	3	12	-6	1	-4	i
Cc1nc2nc(-c3ccccc3)cc(=O)n2[nH]1	-21	-19	4	-7	0	-1	12	i
COC(=O)c1cnc(NNC(=O)c2ccc([N+](=O)[O-])cc2)nc1C(F)(F)F	x	-6	4	8	11	1	-4	i
CC(C)CC1C(=O)N(Cc2cn(Cc3ccco3)nn2)CCS(=O)(=O)N1Cc1ccc(-c2ccc(F)nc2)cc1 (stereo unspecified)	-1	x	x	-5	x	-4	-6	x
CCOc1ccc(NC(=O)CCN2C(=O)CSc3ccccc32)cc1	-17	x	x	x	-16	-2	3	x
COc1ccc(C([O-])=Nc2ccc[n+](-c3nc4ccccc4nc3NS(=O)(=O)c3ccccc3)c2)cc1	x	0	8	-16	-16	x	x	i
COc1ccc2cc3cc(C(=O)N4CCN(Cc5ccc6c(c5)OCO6)CC4)oc3nc2c1	-16	0	-8	x	8	-5	-13	i
CCOC1(C(F)(F)F)NC(=O)N(Cc2ccc(OC)cc2)C1=O (stereo unspecified)	-14	6	1	-90	4	5	2	i
CCCCOc1ccccc1C1CC(=O)NC2=C1C(=O)CCC2 (stereo unspecified)	0	6	-1	x	-3	-2	-15	i
CN1CCN(NC(=O)c2cn(-c3ccccc3)nc2-c2cccc(Br)c2)CC1	5	1	-4	-2	21	0	-1	i
COc1cc(C2CC(=O)N3CN(c4ccccc4C)CSC3=C2C#N)cc(OC)c1OC (stereo unspecified)	x	-4	32	3	x	x	x	i
Cc1ccc2c(Cl)c(C)c(N3CCOCC3)nc2n1	-14	x	x	28	x	-2	-1	x
Cc1ccc(N(Cc2ccccc2)C(=O)c2cccc(S(=O)(=O)N3CC(C)OC(C)C3)c2)cc1 (stereo unspecified)	-19	x	x	x	-18	-3	-6	i
COc1ccc(C(O)Cc2nc3ccccc3n2C)cc1OC (stereo unspecified)	-13	-14	0	-63	1	2	4	i
CC(=O)N[C@@H](Cc1c[nH]c2ccccc12)C(=O)NC1CC1	-19	-1	-14	2	-9	-1	5	i
O=C(Nc1ccccc1)C1=C[C@@H](c2ccc(C(F)(F)F)cc2)C[C@@H](OCCCCO)O1	-7	x	x	-24	7	1	-2	i
O=C(Nc1ccc(F)cc1)Nc1ccc(NC(=O)c2ccccc2O)cc1	2	3	7	0	29	4	3	x
COc1ccc(-c2cc(C(F)(F)F)c3c(N)c(C(=O)NCCSC)sc3n2)cc1	-23	-12	1	5	5	-57	-3	i
Cn1c(CS/C(N)=N/N=C/c2ccccc2)c(Br)c(=O)n1-c1ccccc1	x	3	8	-97	-1	1	-1	i
C=CCCCCCCCCc1nc(SCC(=O)O)n[nH]1	-26	-2	-11	-7	7	1	-1	i
COc1cccc(C2C(C(=O)c3sc(C)nc3C)=C(O)C(=O)N2CCN2CCOCC2)c1 (stereo unspecified)	-13	0	13	x	-4	5	7	i
CCCCC(=O)NNC(=O)CC(=O)Nc1ccccc1C(=O)O	x	2	-7	11	-21	-4	-4	i
Cc1ccc(OCC(=O)OC2CCS(=O)(=O)C2)cc1 (stereo unspecified)	-13	0	1	-21	-5	-2	5	i
Cc1ccc(S(=O)(=O)N/N=C/c2cccs2)cc1	x	-7	0	15	-6	-1	0	i
Cc1onc(-c2ccccc2)c1C(=O)N1CCN(Cc2ccccc2)CC1	-10	-1	-14	x	-9	1	-1	x
CCN(CC)S(=O)(=O)c1ccc2c(c1)c(C(=O)O)cn2C	-4	-4	14	x	-6	0	3	i
O=C(CCl)c1ccc2c(c1)CCN2C(=O)C1CCCCC1	x	-4	-4	-8	24	-1	2	i
COc1ccc(NC(=O)CSc2nc(N)cc(=O)[nH]2)cc1S(=O)(=O)N1CCCCC1	-14	x	x	-50	x	3	3	x
S=c1[nH]nc(-c2cc(-c3ccccc3)n[nH]2)n1/N=C/C(Br)=C/c1ccccc1	-10	19	5	-44	83*	1	-19	i
Cc1ccc(C(=O)C(C)OC(=O)CNC(=O)c2ccc(Br)o2)cc1 (stereo unspecified)	x	x	x	x	-5	5	0	i
Cc1ccc2occ(/C=N/NC(=O)c3ccncc3)c(=O)c2c1	-10	2	8	6	-15	-15	-7	i

The list continues.
SMILES	UUG fidelity	eIF4H inh	PABP FP inh	HIV Env fusion	CSC inhib	MT1-MMP act inh	MT1-MMP act inh RFP	Rce1 inh
Cc1ccc(NC(=O)c2ccc(-n3cncn3)c([N+](=O)[O-])c2)cc1	x	3	6	-150	4	4	0	i
NC(=O)c1ccsc1NC(=O)COC(=O)Cc1ccccc1Cl	-20	x	x	44	-18	4	-8	x
Cc1ccc(CNC(=O)N2CCN(C)CC2)cc1	x	3	7	x	-9	2	5	i
CC(=O)Nc1c(-c2ccccc2Cl)c(=O)c2ccccc2n1C	-9	-2	-6	6	-9	1	3	i
CCOc1ccc(N2C(=O)CC(NCCc3c[nH]c4ccccc34)C2=O)cc1 (stereo unspecified)	x	6	u	-1	0	4	5	i
CCCCNC(=O)c1cc2c(-c3ccc(Cl)cc3)nn(C)c2s1	9	3	4	1	4	-3	-1	i
O=C1CCCc2[nH]c3cccc(/C(=C/c4ccccc4)c4ccccc4)c3c21	-4	6	-5	70*	31	-10	-3	i
O=C(CSc1nnc(COc2ccc(Cl)cc2)o1)N1CCOCC1	x	2	24	10	-10	7	7	i
CC(=O)NCC1CCCN(Cc2cn(-c3ccccc3)nc2-c2ccc3c(c2)OCO3)C1 (stereo unspecified)	x	-6	-5	17	-3	1	1	i
Cc1c(-c2csc(N)n2)cnn1C	-12	-2	-23	3	-16	-1	-1	i
C=CC[C@@H](CC(=O)N[C@H](CO)Cc1ccccc1)C(=O)NC[C@H](OC(=O)[C@@H](CC=C)Cc1ccc(F)cc1)c1ccccc1	0	x	x	12	-6	-7	-13	x
